LANA-H2A inh – blocks KSHV LANA binding to histone H2A/H2B | cell-free LANA-H2A/H2B peptide, fluorescence polarization | inhibition, % (no concentration beside the values) | 320,000 tested, 0.6% active | AID 2629; in the data active = inhibition mostly above about 10%, no sharp cut-off; inactive = mostly below about 6.7%;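 also: stock transfer was 7.5 nL into about 10 µL; 0% = median of vehicle wells and 100% = median of positive control wells; one replicate is shown; the record names a cut of 25% in any replicate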
B2AR ag – agonists of human beta-2 adrenergic receptor inducing internalization; P07550; Am2.2-beta2AR cells, FAP receptor internalization, flow cytometry; reference of the scale not given here; response, % (no concentration beside the values); 340,000 tested, 0.43% active; AID 504454;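 active = response above a set limit, near 3 SD of response in nonfluorescent compounds, cut at about 42% in these data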;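 also: stock transfer was 100 nL into about 11 µL; a reference agonist was the positive control; negative values mostly stem from fluorescent compounds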
A1 inh – inhibitors of the anti-apoptotic protein A1, read as caspase activation. caspase activation, % (test concentration not listed). 330,000 tested, 0.066% active. MEF A1-2A-BIM cells, Caspase-Glo 3/7 luminescence, 3 h; percent of clofoctol response, vehicle zero;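 active = over half of replicate activation scores above 10%, or exactly half above 10 with the replicate mean above 10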;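 also: wells of about 30 µL received 50 nL stock; many hits fall short of the cut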
UCH37 DUB inh – human UCH37 deubiquitinating enzyme inhibition; purified proteasome/UCH37, Ub-AMC cleavage fluorescence; AID 588478; inhibition, % (no concentration beside the values); 330,000 tested, 0.33% active;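 active = mean of two replicates above 20%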;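 also: 0% = compound-free wells with enzyme and 100% = wells lacking proteasome; stock transfer was 100 nL into about 20 µL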
Target sequence (Q9Y5K5 whole entry, looked up): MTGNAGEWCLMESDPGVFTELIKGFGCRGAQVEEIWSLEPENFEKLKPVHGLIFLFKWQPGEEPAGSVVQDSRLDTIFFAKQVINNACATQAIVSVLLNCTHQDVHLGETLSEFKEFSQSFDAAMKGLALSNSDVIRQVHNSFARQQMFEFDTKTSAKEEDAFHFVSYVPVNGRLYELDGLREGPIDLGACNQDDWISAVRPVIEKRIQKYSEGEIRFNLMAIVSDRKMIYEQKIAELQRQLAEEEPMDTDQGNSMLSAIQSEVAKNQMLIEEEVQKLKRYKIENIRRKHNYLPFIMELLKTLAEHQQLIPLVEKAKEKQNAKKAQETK
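Signal – fluorescence, ex 355 nm, em 460 nm · System – Proteasome-bound UCH37 · Input – 0.15 nM proteasome as dispensed · Timing – 30 min preincubation with enzyme, 25 min cleavage at room temperature · Read-out basis – percent inhibition of cleavage signal versus uninhibited and no-proteasome wells · Medium – Tris-HCl pH 7.4 with ATP-MgCl2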
Vif TR-FRET – inhibitors of Vif binding to APOBEC3G peptide, primary screen, biochemical, TR-FRET, GST-Vif 1-94, biotin-A3G peptide, dose response retest (AID 1117319); TR-FRET GST-Vif / biotin-A3G peptide binding; higher % means a stronger effect; test concentration not given here; strong numbers were not always called active; inhibition, %, or IC50 in µM where a hit was titrated; 260,000 tested, 0.57% active;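 active = above the screen mean plus three standard deviations and confirmed in dose response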;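 also: Vif residues 1-94 fused to GST binding biotinylated APOBEC3G peptide 110-148; 0% = full assay without inhibitor and 100% = GST in place of GST-Vif; retest series ran down from 100 µM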
HNF4A DNA FP – change in binding of human HNF4 alpha to DNA; P41235; HNF4a-FITC DNA binding, fluorescence polarization, 1 h; activity change, % at 10 µM; 360,000 tested, 0.3% active; in the data active = activity change above about 30%, passing the limit was not always enough;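 also: controls were the assay level and a saturating level of protein; the project sought stronger binding though the title names inhibitors; some compounds called inactive have numbers as strong as hits; positive values seem to mean higher polarization but the record does not say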
Target sequence (P41235 whole entry, looked up): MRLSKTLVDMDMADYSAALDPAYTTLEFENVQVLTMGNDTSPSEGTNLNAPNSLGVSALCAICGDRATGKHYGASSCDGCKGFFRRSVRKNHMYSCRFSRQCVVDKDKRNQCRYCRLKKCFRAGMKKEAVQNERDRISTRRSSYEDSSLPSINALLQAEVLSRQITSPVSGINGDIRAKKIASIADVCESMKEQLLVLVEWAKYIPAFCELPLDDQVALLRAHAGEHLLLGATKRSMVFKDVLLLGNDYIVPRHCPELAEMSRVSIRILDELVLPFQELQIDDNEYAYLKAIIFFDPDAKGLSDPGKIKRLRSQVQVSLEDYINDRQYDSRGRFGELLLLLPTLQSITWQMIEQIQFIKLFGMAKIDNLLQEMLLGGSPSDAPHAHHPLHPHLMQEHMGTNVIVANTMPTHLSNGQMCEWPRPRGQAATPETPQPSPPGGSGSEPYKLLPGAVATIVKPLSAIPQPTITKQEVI
E coli growth – blocks Escherichia coli growth; OD600, 23 h; hits give low values; OD600 absorbance (no concentration beside the values); 330,000 tested, 0.21% active; AID 1053175;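 active = OD600 absorbance below the run mean of sample wells minus 3.6 SD, in any replicate, cut at about 0.56 in these data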;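 also: stock transfer was 300 nL into about 60 µL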
Numbers without * were called inactive; i = inactive; · = no result given; & = joins results of further samples. Outcome played no part in choosing rows; overall some 2.1% were active at least once.

SMILES	LANA-H2A inh	B2AR ag	A1 inh	UCH37 DUB inh	Vif TR-FRET	HNF4A DNA FP	E coli growth
CC(=O)c1csc(Nc2ccccc2Cl)n1	6.6	-9	-6.3	3.6	-1%	8.4	0.69
COc1ccc(OC)c(S(=O)(=O)N2CCC(C(=O)NC3CCCCC3)CC2)c1	-12	14	0.0	-0.4	·	0.1	0.7
CCn1c(-c2ccc3ncccc3c2)n[nH]c1=S	13	-2	0.9	2.7	4%	-0.3	0.73
Cc1cccc(C(C)C)c1NC(=O)c1ccc(OCC2CCCO2)cc1 (stereo unspecified)	7.3	-3	-0.5	0.1	-4%	3.0	0.66
Cc1nc2ccccc2n1C1CCN(CC(=O)NCc2ccc(F)cc2)CC1	-2.8	-11	-0.8	2.1	-7%	-2.8	0.63
CCC(Sc1ncccc1C(=O)O)C(=O)N1CCOCC1 (stereo unspecified)	-1.8	2	-0.2	5.9	0%	2.2	0.68
OC(COC(c1ccc(F)cc1)c1ccc(F)cc1)CN1CCCC(C(F)(F)F)C1 (stereo unspecified)	1.4	11	0.2	3.1	-8%	2.4	0.65
O=C(N1CCCCC1)C1(c2ccccc2)CCCCC1	5.4	-1	-0.5	4.3	·	-1.2	0.72
Cc1ccc(C2CC2C(=O)NNC(=S)Nc2cccc(C)c2)cc1 (stereo unspecified)	0.0	-5	-1.4	1.7	-2%	0.5	0.74
CC(C)c1ccc(NC(=O)Cn2ncn3c(cc4ccccc43)c2=O)cc1	-2.1	6	1.7	-5.4	-8%	3.1	0.7
COC(=O)c1cc(OC)c(OC)cc1NC(=O)c1cc(C(C)(C)C)oc1C	-0.7	3	-0.5	-29	-12%	-0.9	0.67
Cc1cn2c(N)c(C=C3C=C(Cl)C(=O)C(Cl)=C3)c(=O)nc2s1	·	-37	·	14	6%	108*	0.64

Only A1 inh, Vif TR-FRET and UCH37 DUB inh (five entries from above):
| SMILES | A1 inh | Vif TR-FRET | UCH37 DUB inh |
| --- | --- | --- | --- |
| COC(=O)c1cc(OC)c(OC)cc1NC(=O)c1cc(C(C)(C)C)oc1C | -0.5 | -12% | -29 |
| O=C(N1CCCCC1)C1(c2ccccc2)CCCCC1 | -0.5 | · | 4.3 |
| COc1ccc(OC)c(S(=O)(=O)N2CCC(C(=O)NC3CCCCC3)CC2)c1 | 0.0 | · | -0.4 |
| Cc1cccc(C(C)C)c1NC(=O)c1ccc(OCC2CCCO2)cc1 (stereo unspecified) | -0.5 | -4% | 0.1 |
| Cc1nc2ccccc2n1C1CCN(CC(=O)NCc2ccc(F)cc2)CC1 | -0.8 | -7% | 2.1 |

In another format: entries from further up
| canonical_smiles | LANA-H2A inh | B2AR ag | A1 inh | UCH37 DUB inh | Vif TR-FRET | HNF4A DNA FP | E coli growth |
| --- | --- | --- | --- | --- | --- | --- | --- |
| O=C(N1CCCCC1)C1(c2ccccc2)CCCCC1 | 5.4 | -1 | -0.5 | 4.3 | · | -1.2 | 0.72 |
| Cc1ccc(C2CC2C(=O)NNC(=S)Nc2cccc(C)c2)cc1 (stereo unspecified) | 0.0 | -5 | -1.4 | 1.7 | -2% | 0.5 | 0.74 |

(listing goes on)
SMILES	LANA-H2A inh	B2AR ag	A1 inh	UCH37 DUB inh	Vif TR-FRET	HNF4A DNA FP	E coli growth
O=C(O)c1cc(N2C(=O)C3CC=CCC3C2=O)ccc1NCc1cccnc1 (stereo unspecified)	-0.8	-4	-0.3	-39	2%	-1.2	0.69
COc1cc(NC(=O)CC(C)S(=O)(=O)c2cc3c(cc2C)NC(=O)CO3)cc(OC)c1OC (stereo unspecified)	2.5	0	0.1	2.3	·	2.8	0.7
Cc1ccc(NC(=O)CSc2nc3ccccc3c3nc(CCn4cncc4C)nn23)c(C)c1	·	5	0.2	3.7	-5%	5.8	0.68
COc1ccccc1CC(=O)N(Cc1ccccc1)c1cccc(C)c1	-3.5	7	0.0	2.8	·	4.9	0.68
O=C(CSc1ccccc1)NCCCN1CCOCC1	2.4	4	0.3	1.6	11%	-1.4	0.67
Cc1cccc(C(=O)OCC(=O)NCC2CCCO2)c1O (stereo unspecified)	·	2	·	2.7	·	-0.6	0.61
Cc1ccc(S(=O)(=O)N2CCOCC2)cc1NC(=O)CSc1ccc(Cl)cc1	1.7	-3	-1.2	4.2	-8%	11	0.67
COC(=O)CNC(=O)c1ccccc1[N+](=O)[O-]	0.7	6	-0.5	0.7	·	0.0	0.68
COc1cccc(C2=NN(C(C)=O)C(c3cccs3)C2)c1 (stereo unspecified)	0.8	-1	-0.9	2.2	-10%	3.5	0.69
Cn1ncc2c(NCCO)nc(Cl)nc21	·	-4	·	0.7	-3%	-3.3	0.72
Cc1ccc(N2CC(C(=O)Nc3nccs3)CC2=O)cc1 (stereo unspecified)	0.3	0	-0.4	0.5	6%	-2.8	0.66
CC(=O)N1CCc2cc(S(=O)(=O)CCC(=O)NCCc3ccc(C)cc3)ccc21	1.6	-5	-1.1	5.2	·	1.7	0.7
CC(C)Cn1c(-c2nn(C)cc2Cl)n[nH]c1=S	-5.4	3	0.4	6.1	-4%	2.5	0.7
COc1ccc(NS(=O)(=O)NC(=O)c2cn(C)c3ccccc23)cc1	5.8	-3	2.4	6.1	·	3.5	0.68
CC(CNC(=O)CCCn1ncn2c(cc3occc32)c1=O)c1ccccc1 (stereo unspecified)	2.3	-15	1.0	2.2	7%	-1.4	0.6
COc1ccc(CCN2CC(C(=O)OCC(=O)NC(C)c3cccc(Cl)c3)CC2=O)cc1OC (stereo unspecified)	5.5	7	0.7	1.7	-10%	0.1	0.64
COc1ccc(/C=C2\SC(=Nc3ccccc3OC)NC2=O)cc1	-0.9	3	-0.6	8.6	·	-1.3	0.7
CCOC(=O)C1CCCN(C(=O)COC(=O)C2=COCCO2)C1 (stereo unspecified)	3.2	6	0.1	2.2	-2%	-0.7	0.71
COc1ccc(C)cc1NC(=O)Nc1ccncc1	3.7	-5	-7.6	5.0	·	-2.4	0.62
O=C(Nc1ccccc1)OCC1CCCN2CCCCC12 (stereo unspecified)	-1.6	-3	-0.1	0.5	-4%	-0.3	0.73
CCOC(=O)c1[nH]c2ccc(F)cc2c1NC(=O)CN1CCc2cc(OC)c(OC)cc2C1	1.2	·	0.0	-12	28%	·	0.7
COCCN(C(=S)Nc1c(C)cc(C)cc1C)C(C)c1cccs1 (stereo unspecified)	4.1	-9	0.3	4.4	-6%	-2.2	0.66
Nc1c(NCc2ccccc2)c(=O)c1=O	3.9	-2	0.0	2.4	0%	-0.5	0.65
O=[N+]([O-])c1cccc(C(=S)N2CCN(c3ccc(F)cc3)CC2)c1	-2.8	7	1.2	2.7	3%	2.7	0.66
CCOc1ccc(/C(O)=C/C(=O)C(=O)Nc2ccc(S(=O)(=O)NC(C)=O)cc2)cc1	-1.2	16	-0.1	13	·	2.3	0.65
COc1ccc(Cl)cc1S(=O)(=O)NC(C)C(=O)NCCCn1ccnc1 (stereo unspecified)	-1.6	-8	-0.8	-0.1	-5%	4.6	0.69
Cc1ccc(CSCC(=O)N(C)CC(=O)Nc2ccc(Br)cc2C)cc1	-0.3	6	-1.5	1.5	1%	2.6	0.71
COc1ccc(/C=C(\C#N)C(=O)N2COCC2(C)C)cc1	2.4	3	3.0	7.2	·	4.3	0.67
COc1cc(/C=N/NC(=O)c2cc(-c3ccccc3)nc3ccccc23)ccc1O	-6.4	-9	0.5	·	8%	1.7	·
COc1cc(C2Nc3ccc4ccccc4c3C3=C2C(=O)CC(C)(C)C3)ccc1OC(C)C(=O)O (stereo unspecified)	-3.4	-3	0.6	i	-5%	0.7	0.69
CCCCCCC1C(C#N)=C(N)OC2=C1C(=O)CC(C)(C)C2 (stereo unspecified)	-3.4	-1	-1.5	4.2	22%	5.5	0.71
CCN(CC)S(=O)(=O)c1ccc(-c2cn3cc(Cl)ccc3n2)cc1	-2.0	-15	-0.1	·	4%	0.7	·
O=C1c2ccccc2C(=O)N1CC(O)COCc1ccccc1 (stereo unspecified)	-4.3	-5	-0.6	2.0	7%	1.0	0.67
Cc1ccc(Cl)c2c(N=Nc3ccccc3)c(O)[nH]c12	-1.3	-4	-0.7	6.3	·	61	0.72
O=C(NCc1ccncc1)C1CCN(S(=O)(=O)c2ccccc2)CC1	·	-7	-0.5	-0.1	-7%	-1.5	0.66
O=C(NCc1cnn(-c2ccc(F)cc2)c1)C1CCC(=O)N(C2CC2)C1 (stereo unspecified)	-23	-4	-0.8	-0.3	·	-4.9	0.65
CCc1nc2nc(C)c(NS(=O)(=O)c3cccs3)c(=O)n2[nH]1	5.6	2	-0.3	2.7	·	4.9	0.72
CN(CCOc1ccccc1)C(=O)c1cc(S(=O)(=O)N2CCCCC2)ccc1Cl	0.1	-4	0.0	4.6	4%	3.4	0.64
OCCC1CN(C2CCN(c3ccccc3F)CC2)CCN1Cc1ccccc1 (stereo unspecified)	0.2	-5	0.6	2.2	0%	1.6	0.69
O=C(COc1ccccc1)Nc1ncccn1	5.2	-9	-1.0	3.3	-3%	1.8	0.66
COc1ccc(NS(=O)(=O)c2cc(Cl)ccc2Cl)cc1S(=O)(=O)N1CCCCC1	-1.1	-1	0.9	0.4	10%	-1.2	0.69
CCCc1ccc(C(=O)NNc2cc(Cl)ccc2Cl)cc1	-0.5	11	-0.3	3.7	-1%	-0.7	0.68
CN(C)S(=O)(=O)NCC1CCCN(Cc2ccc(-c3ccccc3)cc2)C1 (stereo unspecified)	2.7	-3	1.7	-0.4	·	1.8	0.65
Cc1ccc(CNS(=O)(=O)c2cc3c(cc2C)N(C)CCO3)cc1	0.3	-8	-0.7	5.3	·	-1.4	0.77
Cc1ccc(C2=N/C(=C/N3CCOCC3)C(=O)O2)cc1	6.0	-5	1.6	20*	7%	1.7	0.69
Cc1cc(NC(=O)CSc2nc3c(c(=O)n(C)c(=O)n3C)n2C(C)C)no1	2.3	-3	-0.4	2.7	-1%	3.5	0.72
COc1cccc(CN2CCN(c3ncccn3)CC2)c1	0.0	-5	-0.1	3.9	20%	5.3	0.67
COc1ccccc1OCC(=O)Nc1ccc(N2CCOCC2)cc1N1CCOCC1	1.4	-5	0.3	1.5	17%	2.7	0.71
COc1ccccc1N1CCN(C(=O)c2ccc3c(=O)n(Cc4ccco4)c(=S)[nH]c3c2)CC1	-2.2	-4	-0.1	2.7	-7%&-7%	-3.0	0.74
COc1ccc2c(c1OC)C(=O)OC2N1C(=O)CC[C@H]1C(=O)NCC1CCCO1 (stereo partly specified)	-2.9	-5	-0.2	-3.5	·	6.4	0.76
Cn1nccc1C(=O)N1CCN(C23CC4CC(CC(C4)C2)C3)CC1	-0.5	2	-0.9	-1.0	0%	-1.9	0.69
C=CCNc1oc(-c2ccc(OC)cc2)nc1C#N	-0.9	-6	1.2	-69	28%	0.5	0.7
Cc1c(C)c(C)c2[nH]c(=S)[nH]c2c1C	2.4	8	1.4	0.9	-12%	3.5	0.64
CN(C)S(=O)(=O)c1ccc(C(=O)NCCN2C(=O)S/C(=C\c3cccnc3)C2=O)cc1	4.5	-16	1.7	2.1	-6%	4.0	0.68
Cc1ccc(CSC2=Nc3sccc3C3=NC(=O)CN23)cc1	3.0	5	0.3	1.4	68%	23	0.75
COCCN1CCN(Cc2nc(C3(c4ccc(C)cc4)CCCC3)no2)CC1	-1.6	3	-0.2	-0.3	3%	-1.9	0.73
O=C(O)CCCC(=O)Nc1nncs1	-1.9	7	0.8	2.1	6%	0.6	0.68
CCN(CC)CCCN(C(=O)c1ccc(F)cc1)c1nc(-c2ccc(OC)cc2)cs1	-1.4	4	1.5	2.9	·	0.7	0.67
CCCCC(=O)NC(c1ccc(Cl)cc1Cl)c1ccc2cccnc2c1O (stereo unspecified)	-12	15	0.4	·	·	-1.6	·
O=C(CSc1nnc(-c2ccccc2)n1Cc1ccco1)NCc1ccc2c(c1)OCO2	3.8	-7	0.4	1.3	-1%	-1.1	0.71
O=C(NCc1ccncc1)c1ccc(NS(=O)(=O)c2cccc([N+](=O)[O-])c2)cc1	-8.3	5	0.9	·	·	-3.6	·
